Assay outcomes: PubChem, National Center for Advancing Translational Sciences (NCATS)
HSD17B inhib – blocks hydroxysteroid 17-beta dehydrogenase activity; Q99714; recombinant HSD17B10, NADH fluorescence kinetic; many of its hits are not listed in these tables; Potency, µM (titrated, usually from 57.1 µM), for the others: at the highest dose activity change, negative = inhibition, hits mostly inhibitors; 75,000 compounds, 7.6% hits; active means well fitted inhibition curve with a large enough effect; inconclusive means small, poorly fitted or top-dose-only effect; inactive means no such curve, though single readings can be large or run the other way;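 further: the protocol describes HADH2 (HSD17B10) and not the HSD17B4 of the title; nearly all actives have a fitted effect of over 70% in size; most hits overshoot -100% by far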
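20 nM HADH2, pH 9.0 Tris/Tween; cpd preinc 15 min RT; start w/ 1 mM NAD+ + 90 uM b-hydroxybutyryl-CoA; kinetic fluor ex360/em450 q30s x 4 min; delta last-first.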
Starred values were filed as active, the others as inactive; ? = inconclusive; & = joins results of further samples; [ ] = dose if it differs, or a comment. On the % scale 0 is the no-effect control and ±100 the full control effect; potency means the concentration at half of the fitted maximal effect.

molecule | HSD17B inhib
CC1(C)Oc2ccc3ccc(=O)oc3c2C(N2CCCCC2)C1O (stereo unspecified) | -5.7%
CCC(C)(C)NC(=O)c1ccc2c(c1)N(CC(=O)OC)C(=O)C(C)(C)O2 | 7.6%
CCOC(=O)C(O)(NC(=O)c1cccnc1)C(F)(F)F (stereo unspecified) | -14.1%
CN1CCCCCC1=Nc1ccccc1C#N | 3.9%
COc1ccccc1OCC(=O)Nc1nnc(-c2ccco2)s1 | ?
COc1cccc(NC(=O)CSc2nc3c(c(=O)n2C)SC(C)C3)c1 (stereo unspecified) | -6.6%
COCCCn1c(SCC(=O)Nc2cccc(C(=O)OC)c2)nnc1-c1ccncc1 | -1.4%
O=C(Nc1scc(-c2cccs2)c1C(=O)O)c1cccs1 | -11.2%
CCOC(=O)Nc1ccc(NS(=O)(=O)c2ccc(C)cc2)cc1 | -3.9%
COc1ccc(-n2c(=O)cc(N3CCc4ccccc43)[nH]c2=O)cc1 | 6.2%
Cc1cc(C(=O)OCC(=O)N2CCc3ccccc32)c(C)o1 | -1.7%
Cc1cccc(NC(=O)Cn2nnc(-c3cccs3)n2)c1C | 2.1%
Nc1cc(N)nc(SCC(=O)NCC2CCCO2)n1 (stereo unspecified) | 5.9%
CC(=O)c1c(C)[nH]c(C(=O)Nc2ccc(C)cn2)c1C | -7.7%
CCCCOc1ccc(CNn2c(C)nc3ccccc3c2=O)cc1 | -1.8%
O=S(=O)(Nc1ccncc1)c1ccccc1 | 2.1%
Cc1noc(C)c1S(=O)(=O)N1CCC(C(=O)N2CCC(N3CCCCC3)CC2)CC1 | 12.9%
CC1(C)N=C(/C=N/O)C=[N+]1[O-] | 10.4%
CCOc1cccc(/C(O)=C2/C(=O)C(=O)N(CCN3CCOCC3)C2c2cccnc2)c1 (stereo unspecified) | -6.3%
Cc1noc(C)c1CSc1nnc2n(-c3ccccc3)c(=O)c3ccccc3n12 | 5.1%
NC(=O)CN1C(=O)C(O)(CC(=O)c2ccccc2O)c2ccccc21 (stereo unspecified) | -0.9%
Cc1ccccc1NC(=O)CCN1CCCCCC1 | -5.6%
CCOC(=O)c1[nH]c(C)c(/C(O)=C2\C(=O)C(=O)N(CCN(C)C)C2c2ccncc2)c1C (stereo unspecified) | -5.0%
O=C1c2cccnc2C(=O)N1Cc1ccc2c(c1)OCO2 | 11.7%
O=C(/C=C/N1CCOCC1)c1ccc(-c2ccccc2)cc1 | -5.6%
COC(=O)c1cc(CSc2nnc(NC3CCCCC3)s2)oc1C | -7.6%
Cc1ccc(C2NC(=O)NC(O)(C(F)(F)F)C2C(=O)c2cccs2)o1 (stereo unspecified) | -7.0%
CCOC(=O)N1CCN(C(=O)CSc2nnc(COc3ccccc3)o2)CC1 | 7.5%
C[C@H](NC(=O)Nc1cccc(C(F)(F)F)c1)C(=O)O | 1.2%
Cc1ccccc1OC(=O)CCC(=O)OCCCC(F)(F)C(F)(F)F | -8.0%
COc1ccc(Cl)cc1NC(=O)CN1C(=O)CSC1=O | 3.7%
Cc1ccc(CN2C(=O)CCC2C(=O)N2CCN(c3ccc(F)cc3)CC2)cc1 (stereo unspecified) | -1.6%
O=C(Nc1ccccc1Cl)N1CCN(c2ccc3nnc(-c4ccccc4)n3n2)CC1 | ?
CCCC(=O)NCCCc1nc2ccccc2n1C(C)C | 0.9%
Cc1ccc(C)c(NC(=O)CSc2nnc(CCCCCNC(=O)OC(C)(C)C)o2)c1 | -1.6%
Cc1ccc(-c2cc(C(=O)N3CCOCC3)c3ccccc3n2)cc1 | 25.1µM*
Cc1c(/N=C/c2ccco2)n(Cc2ccccc2)c2ccccc12 | 16.7%
O=P(c1ccccc1)(c1ccccc1)C1CCCO1 (stereo unspecified) | 12.5%
COc1ccc(C(=O)N2CCC[C@@]3(CCN(C)C3)C2)cc1 | 1.3%
O=C(CSc1nnc(Cc2ccccc2)n1Cc1ccco1)NC1CCCC1 | -8.7%
O=C(Nc1ccccc1)N(CCc1ccncc1)C1CCCCC1 | 4.9%
CC(C)Sc1nc2c(c(=O)[nH]c(=O)n2C)n1CCc1ccccc1 | 4.7%
O=C(CN(Cc1ccccc1)C(=O)CCC(=O)Nc1nccs1)NCc1ccco1 | -5.4%
Cn1c(=NC(=O)CSCC(=O)N2CCCC2)sc2ccccc21 | -0.8%
COc1cccc(C2N(c3ccccn3)C(=O)C3CCCN32)c1OC (stereo unspecified) | 7.0%
O=C(Nc1ccc(F)cc1)c1cccnc1N1CCOCC1 | -6.2%
Cc1ccc(N(CC(=O)NCc2cccs2)S(=O)(=O)c2cccs2)cc1 | 11.7%
COCCCNC(=O)C1CCN(C(=O)Nc2ccc(Cl)cc2)CC1 | 17.6%
COc1ccc(NC2c3ccccc3C(=O)N2Cc2ccco2)cc1OC (stereo unspecified) | -4.3%
Cc1cc(C(=O)Nc2nnc(C3CCCCC3)s2)cs1 | 4.5%

More results
canonical_smiles | HSD17B inhib
COC(=O)N1[C@H](C)C=C[C@]1(Cc1ccccc1)C(=O)NCc1ccc(C)o1 | ?
Clc1ccc(-n2ncc3c(NCC4CCCO4)ncnc32)cc1 (stereo unspecified) | ?
Cc1onc(-c2c(Cl)cccc2Cl)c1C(=O)NCCN1CCOCC1 | 9.2%
COc1cccc2cc(-c3nnc(SCC(=O)NCc4ccccc4)n3C)oc12 | 22.5%
O=C(Nc1ccncc1)c1cc2ccccc2oc1=O | 5.2%
Cc1noc(/C=C/N(C)C)c1S(=O)(=O)N1CCCC(C(=O)NCc2ccc(F)cc2)C1 (stereo unspecified) | -5.1%
CCC(C)c1ccccc1O (stereo unspecified) | 2.5%&-5.2%
COc1cccc(NC(=O)c2ccccc2-c2nc(-c3cccc(C)c3)no2)c1 | -24.5%
Cc1ccc(NC(=O)C(C)N2CCOCC2)c(C(=O)c2ccccc2)c1 (stereo unspecified) | -1.4%
O=C(NC1CCCCC1)/C(=N\O)c1ccccn1 | 0.1%
CC1CCCCN1CCNS(=O)(=O)c1ccc2c(c1)oc(=O)n2C (stereo unspecified) | 0.1%
CC(=O)c1ccc(OCCCC(=O)OCc2nnc(-c3ccc(Cl)cc3)o2)cc1 | -2.9%
Cc1sc2c(c1C)CN(C1CC(C)(C)NC(C)(C)C1)CN2C(=O)c1ccco1 | -7.4%
CSc1ncnc2c1ncn2CC(=O)[C@H]1CC[C@H]2[C@H]3CCC4=CC(=O)CC[C@@]4(C)[C@@H]3CC[C@@]12C | 1.9%[11.4 µM]
CCCCP(=O)(CCCC)Cc1ccccc1O | 7.9%
OCCN(Cc1ccccc1)Cc1cccc(C(F)(F)F)c1 | -6.5%
Cc1ccc(C(=O)C2CCN(CC(=O)NC3CCCCC3)CC2)cc1 | 4.5%
CCC(Sc1ccc2nnc(-c3ccc(F)cc3)n2n1)C(=O)OC (stereo unspecified) | 25.1µM*
C(=N\n1cnnc1)/c1cn(-c2cccs2)nc1-c1ccccc1 | ?
COc1ccc(Cl)cc1NC(=O)c1oc(C)nc1C | -17.1%
Clc1ccc(-c2noc(COc3ccccc3)n2)cc1 | 0.3%
O=C(Nc1ccc2oc(-c3ccccc3)nc2c1)c1ccncc1 | -18.8%
Cc1ccc(S(=O)(=O)NCCCNS(C)(=O)=O)cc1 | 2.0%
COc1cccc2c1C(=N)c1c(O)c3c(c(O)c1C2=O)C[C@](O)(C(C)=O)C[C@@H]3O[C@H]1C[C@H](N)[C@@H](O)[C@H](C)O1 | 2.7%[11.4 µM]
CCOC(=O)c1cnn2c(C(F)(F)F)cc(-c3cn(C)nc3C)nc12 | 31.6µM*
O=C(c1cccc(F)c1)N1CCC[C@@]2(CCN(c3ccncc3)C2)C1 | 6.6%
O=S(=O)(c1ccc(Br)cc1)N1CCN(S(=O)(=O)c2ccc(Br)cc2)CC1 | 9.5%[11.4 µM]
O=C(CSc1nnc(CNc2ccccc2)o1)N1CCCc2ccccc21 | -3.1%
COc1cccc(OC)c1C(=O)NCCN1CCN(C(=O)c2c(OC)cccc2OC)CC1 | 5.2%
CCOC(=O)C1CCCN(C(=O)C2CCCN(S(=O)(=O)c3ccc4c(c3)oc(=O)n4C)C2)C1 (stereo unspecified) | 3.7%
C=Cc1ccccn1 | -1.2%
Cc1cccnc1-n1c(CCN2C(=O)c3ccccc3C2=O)nc2ccccc2c1=O | 6.4%
CCS(=O)(=O)N1CCC(C(=O)Nc2cc(Cl)ccc2O)CC1 | 0.4%
Cn1c(=O)c(C#N)c(-c2ccccc2)n2cnnc12 | 14.0%
O=C(c1ccc(-c2ccccc2)cc1)N1CCC(C(=O)N2CCCC2)CC1 | 17.4%
CN(C)c1ccc(/C=c2\sc3nc(-c4ccccc4)nn3c2=O)cc1 | -0.7%
COc1ccc(C)cc1S(=O)(=O)N(C)CC(=O)Nc1ccc2c(c1)OCCO2 | 0.6%
CC1(C)CC(=O)C=C(NCCCNC2CCCCC2)C1 | -6.4%
Cc1ccc(C(C)C)c(OCc2nc(-c3nonc3N)no2)c1 | -14.1%
CN(C)c1ccc(-c2cncnc2NCc2cccs2)cc1 | ?
CN(C)c1cc(N)c2ccccc2n1 (tested in a mixture with another compound) | -18.6%
CSC1CCCCC1(O)CSc1nc2c(cc1C#N)CCCC2 (stereo unspecified) | -4.2%
CCCn1c(NCc2cccc(OC)c2OC)nc2ccccc21 | 10.6%
Cc1nn(CC(=O)Nc2nnc(CC(=O)N3CCCC3)s2)c(=O)c2ccccc12 | -4.4%
CCn1c(CSc2nc3ccccc3s2)nnc1SCC(=O)c1ccc2c(c1)OCCO2 | 12.0%
CCOCCOC(=O)C(C)Sc1n[nH]c(=O)[nH]c1=O (stereo unspecified) | -4.8%
CCCC(c1nnnn1CC(=O)OCC)N(Cc1cc2c(C)cc(C)cc2[nH]c1=O)C1CCCC1 (stereo unspecified) | 12.6µM*
Cc1ccc(-c2nn(CC(=O)NCCN3CCOCC3)c(=O)c3ccccc23)cc1 | 6.3%
Cc1ccc([C@@]2(C)CC/C(=N/N=C3\CC[C@](C)(c4ccc(C)c(C)c4)c4cc(C)c(C)cc43)c3cc(C)c(C)cc32)cc1C | -2.3%[11.4 µM]
Cc1nc2ccc(NC(=O)c3ccc(S(=O)(=O)N4CCOCC4)cc3)cc2s1 | 150.1%[activator]
Cc1cc(=O)[nH]c(Nc2c(C)n(C)n(-c3ccccc3)c2=O)n1 | 8.8%
O=C(Cc1ccc(F)cc1)Nc1c2c(nn1-c1cccc(Cl)c1)CS(=O)C2 (stereo unspecified) | -5.8%
CC(C)N1C(=O)CCC1C(=O)N1CCC(Cc2ccccc2)CC1 (stereo unspecified) | 2.7%
Cc1cccc(N2CCN(S(=O)(=O)c3ccc4c(c3)n(C)c(=O)c(=O)n4C)CC2C)c1 (stereo unspecified) | -1.5%
Cc1ccc(NC(=O)NC2=N/C(=C(/C#N)C(=O)N3CCCC3)c3ccccc32)cc1 | -0.5%
COc1ccc2nc(NC(=O)c3ccc(Br)s3)sc2c1 | 31.6µM*
COC(=O)C/C=C\[C@@H](C)[C@@H](/C=N\OC[C@@H](O)COCc1ccco1)NS(=O)(=O)c1ccc(C)cc1 | 3.4%[11.4 µM]
Cc1nc(N2CCOCC2)c2nc(-c3ccccc3)n(CC3CCN(C)CC3)c2n1 | 25.1µM*
Cc1cc(Cl)nc2ccc(Cc3ccc4nc(Cl)cc(C)c4c3)cc12 | -4.1%[11.4 µM]
CCOC(=O)CN=C1CC(C)(C)CC2=C1Sc1ncnc(N(C)C)c1N2 | 0.6%

Sorted by molar mass (high to low): 7 of the compounds above.
canonical_smiles | HSD17B inhib
CCn1c(CSc2nc3ccccc3s2)nnc1SCC(=O)c1ccc2c(c1)OCCO2 | 12.0%
Cc1nn(CC(=O)Nc2nnc(CC(=O)N3CCCC3)s2)c(=O)c2ccccc12 | -4.4%
Cc1ccc(NC(=O)NC2=N/C(=C(/C#N)C(=O)N3CCCC3)c3ccccc32)cc1 | -0.5%
Cc1cc(Cl)nc2ccc(Cc3ccc4nc(Cl)cc(C)c4c3)cc12 | -4.1%[11.4 µM]
CSC1CCCCC1(O)CSc1nc2c(cc1C#N)CCCC2 (stereo unspecified) | -4.2%
CCCn1c(NCc2cccc(OC)c2OC)nc2ccccc21 | 10.6%
Cc1cc(=O)[nH]c(Nc2c(C)n(C)n(-c3ccccc3)c2=O)n1 | 8.8%

Continued.
canonical_smiles | HSD17B inhib
O=C(NCc1cccs1)c1cc(-c2ccccc2)on1 | 0.9%
CCC/C=C(\CCC)C(NP(=O)(c1ccccc1)c1ccccc1)c1ccc(-c2ccccc2)cc1 (stereo unspecified) | ?
COC(=O)c1ccccc1NC1OC(=O)c2ccccc21 (stereo unspecified) | 31.6µM*
Fc1ccc(C2CC(c3ccco3)n3ncnc3N2)cc1 (stereo unspecified) | 0.6%
O=C(O)c1cncc(C(=O)O)c1 | 6.0%[11.4 µM]
COC(=O)[C@H]1C[C@@H]1[C@H](NC(=O)Oc1ccc(F)cc1)c1ccccc1 | -6.6%
CCN(CC)CCCN1C(=O)C(=O)/C(=C(/O)c2cnn(-c3ccccc3)c2C)C1c1ccncc1 (stereo unspecified) | 1.5%
COc1ccc(CNC(=O)C2CCN(C(=O)[C@@H](CC(C)C)NC(=O)OC(C)(C)C)CC2)cc1 | 1.0%
CCSc1nnc(NC(=O)C2CCCCC2)s1 | -5.8%
CN(C)c1ccc(C=Nc2ccc(N(C)C)cc2)cc1 | -26.1%
COc1ccc(NC(=O)Cn2c(=O)sc3ccccc32)c(OC)c1 | 3.4%
CC(=O)Cc1ccccc1OC(=O)c1ccco1 | 4.3%
CC(C)(C)NC(=O)CSc1nncn1-c1ccccc1 | -1.0%
Oc1ccc(Nc2nc(-c3ccc(Cl)cc3)cs2)cc1 | -6.8%
Cc1sc(N)c(C(=O)c2cccc(C(F)(F)F)c2)c1C | ?
CCOC(=O)c1c(COc2ccccc2)oc2ccc(O)cc12 | -13.2%
COCC(=O)c1[nH]c2ccccc2c1C | ?

This is a subset (hit frequency here may not be typical).
